High-throughput results deposited in PubChem by several laboratories.
LANA-H2B inh: blocks KSHV LANA binding to histone H2A/H2B; Q9QR71; cell-free LANA-H2A/H2B peptide, fluorescence polarization; inhibition, % (test concentration not listed); 320,000 compounds, 0.6% hits; AID 2629; in the data active means inhibition mostly above about 10%, no sharp cut-off; inactive means mostly below about 6.7%;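 further: stock transfer was 7.5 nL into about 10 µL; 0% = median of vehicle wells and 100% = median of positive control wells; one replicate is shown; the record names a cut of 25% in any replicate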
T cruzi inh: T. cruzi replication inhibition; T. cruzi beta-gal in NIH3T3, luminescence, 90 h; inhibition, % (test concentration not listed); 300,000 compounds, 1.4% hits; AID 1885;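 active means mean inhibition across valid replicates above about 55%, limit read from the data; inconclusive means mean below that limit but half or more replicates reach it; inactive means mean below it, under half of replicates reach it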;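 further: signal also drops with host cell toxicity which is not excluded here; 0% = plate median of DMSO wells and 100% = zero luminescence signal; higher percent means less beta-gal luminescence so fewer parasites; stock transfer was 50 nL into about 50 µL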
Bfl-1 A1 inh: inhibitors of the anti-apoptotic protein A1, read as caspase activation; MEF A1-2A-BIM cells, Caspase-Glo 3/7 luminescence, 3 h; percent of clofoctol response, vehicle zero; 330,000 compounds, 0.066% hits; caspase activation, % (no concentration beside the values);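 active means over half of replicate activation scores above 10%, or exactly half above 10 with the replicate mean above 10; inconclusive means replicate mean below 10 yet half the replicates above 10; inactive means over half of replicates below 10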;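 further: wells of about 30 µL received 50 nL stock; many hits fall short of the cut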
Vif A3G: HIV-1 Vif–A3G interaction blockers – biochemical, TR-FRET, GST-Vif 1-94, biotin-A3G peptide, dose response retest, primary screen (AID 1117319); TR-FRET GST-Vif / biotin-A3G peptide binding; higher % means a stronger effect; test concentration not given here; strong numbers were not always called active; inhibition, %; hits with a dose series show IC50 in µM; 260,000 compounds, 0.57% hits;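 active means above the screen mean plus three standard deviations and confirmed in dose response; inconclusive means results disagree or hit not tested in dose response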;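 further: Vif residues 1-94 fused to GST binding biotinylated APOBEC3G peptide 110-148; 0% = full assay without inhibitor and 100% = GST in place of GST-Vif; retest series ran down from 100 µM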
Calb FLC: C. albicans growth modulation with fluconazole; C. albicans CaCi-2 (fluconazole-resistant clinical isolate) + fluconazole, Alamar Blue growth, 48 h; growth inhibition, % (no concentration beside the values); 300,000 compounds, 0.57% hits; AID 1979;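 active means most replicates above 75%; inconclusive means exactly half above 75%; inactive means most below 75%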;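 further: all wells also contain fluconazole at 8 µg/ml as a sub-toxic cotreatment; 0% = median of DMSO wells and 100% = median of geldanamycin control wells; wells of about 8 µL received 7.5 nL stock; the first replicate is given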
MLL AF4-AF9 inh: inhibitors of human MLL-AF4/AF9 interaction | inhibition, % at 10 µM | 350,000 compounds, 0.47% hits | AlphaScreen, biotin-AF4 peptide binding to FLAG-AF9 | AID 651704;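 active means every replicate reaching a set inhibition limit, whatever the replicate mean, cut at about 25% in these data; inconclusive means mean inhibition reaches that limit but some replicates miss it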;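 further: 0% = plate neutral control median and 100% = total signal loss; the record names both 10 and 1 µM as test concentration; the first replicate is given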
Target sequence (P42568 whole entry, looked up): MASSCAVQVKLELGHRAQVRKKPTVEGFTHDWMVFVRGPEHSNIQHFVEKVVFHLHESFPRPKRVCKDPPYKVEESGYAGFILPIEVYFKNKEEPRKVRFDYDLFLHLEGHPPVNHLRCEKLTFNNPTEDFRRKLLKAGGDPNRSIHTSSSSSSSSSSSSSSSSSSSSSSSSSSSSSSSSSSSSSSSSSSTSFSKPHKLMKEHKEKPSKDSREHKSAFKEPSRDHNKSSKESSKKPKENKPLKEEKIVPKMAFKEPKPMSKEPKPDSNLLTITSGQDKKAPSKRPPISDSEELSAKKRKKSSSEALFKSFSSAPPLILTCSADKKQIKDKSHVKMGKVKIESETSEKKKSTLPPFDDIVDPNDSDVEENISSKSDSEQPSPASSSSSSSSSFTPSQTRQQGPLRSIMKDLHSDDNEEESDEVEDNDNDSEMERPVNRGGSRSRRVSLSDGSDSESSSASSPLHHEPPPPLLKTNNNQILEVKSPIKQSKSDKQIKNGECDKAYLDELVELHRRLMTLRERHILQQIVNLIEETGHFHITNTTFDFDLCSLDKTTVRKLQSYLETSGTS
RanGTP-Imp inh: disruptors of Ran-importin-beta complex formation – biochemical, FRET, CFP-Ran, YFP-importin-beta, homogeneous, primary screen | cell-free CFP-Ran/YFP-importin-beta FRET ratio | inhibition, % (test concentration not listed) | 300,000 compounds, 1.1% hits;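 active means most replicates above 15%; inconclusive means exactly half above 15%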;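 further: 0% = DMSO wells and 100% = Ran loaded with GDP instead of GTP; wells of about 40 µL received 100 nL stock; the first replicate is given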
Beta cell apopt: blocks beta cell apoptosis | AID 435005 | protection from apoptosis, % (concentration not given with the values) | INS-1E cytokine-induced death, ATP luminescence, 48 h; percent of positive-control rescue, neutral wells zero | 300,000 compounds, 0.8% hits;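 active means all replicates at 75% or more, or half of them and the mean; inconclusive means half reach 75% but not the mean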;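 further: 0% = cytokine-treated negative control wells and 100% = positive control rescue; higher means more ATP so stronger rescue from cytokine killing; wells of about 40 µL received 100 nL stock; the first replicate is given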
Starred values were filed as active, the others as inactive; ? = inconclusive; / = not tested or not shown; & = joins results of further samples.

SMILES	LANA-H2B inh	T cruzi inh	Bfl-1 A1 inh	Vif A3G	Calb FLC	MLL AF4-AF9 inh	RanGTP-Imp inh	Beta cell apopt
Cc1c(C(=O)NCC(c2ccco2)N2CCCC2)sc2ccccc12 (stereo not given)	3.3	/	0.1	-2%	/	3.9	/	-3
Cc1ccc(Cn2c(SCC(C)C)nc3c2c(=O)[nH]c(=O)n3C)cc1	5.4	1	-0.8	0%&1%	-22	/	-3.2	1
CCCCNS(=O)(=O)c1cc2c3c(c1)CCN3C(=O)CC2	-1.5	-10	0.6	0%	5	-2.1	-1.4	-7
CC(=O)Nc1ccc(OCCOc2ccc([N+](=O)[O-])cc2)cc1	6.8	6	0.0	?	-17	-0.7	-3.0	4
COc1ccccc1CNC(=O)CCC1N=C2c3ccccc3N=C(SCC(=O)NCC3CCCO3)N2C1=O (stereo not given)	1.1	-17	-0.4	/	1	-9.2	4.7	5
Cc1cnc(NC(=O)c2cccc(S(=O)(=O)N3CCOCC3)c2)s1	7.6	/	-0.1	8%	/	2.5	/	-7
CC(C)(C)NS(=O)(=O)c1ccc(NC(=O)c2cc(-c3ccccc3)nc3ccccc23)cc1	2.7	59*	-0.3	3%	-4	/	2.2	16
CNc1ccc(Oc2nc([N+](=O)[O-])nn2C)cc1	-2.9	69*	0.1	?	0	1.7	-3.7	3
C=CCSc1nnc(-c2sc(-c3ccccc3)nc2C)n1C	-0.2	21	0.8	4%	?	/	-1.2	-3
CCOC(=O)/C=C1\CN(C(C)c2ccccc2)S(=O)(=O)c2ccccc21 (stereo not given)	0.8	6	-0.5	/	4	-5.9	6.2	-5
CCOC(=O)C1(Cc2ccccc2C(F)(F)F)CCN(CCCn2cccn2)CC1	14*	19	-0.3	-1%	-13	9.1	1.6	-2
Cc1ccccc1-c1nnc(SCC(=O)NCc2ccc3c(c2)OCO3)n1C	2.8	-8	0.1	3%	-3	/	-2.9	-2
Cc1cc(C)c(NC(=O)Nc2ccccc2)c(C)n1	2.4	/	0.6	-11%	/	1.1	/	-5
CN(C)C(=O)CSCc1c(Cl)cccc1Cl	/	0	0.4	-5%	-1	/	-1.9	0
CC(C)=CCCC(C)N(C=O)C(C)CCC=C(C)C (stereo not given)	2.0	0	-0.2	-2%	-2	/	1.5	-8
O=C1C(=C(O)c2ccccc2)C(=O)c2ccccc21	4.6	-4	-0.6	-3%	16	-12	2.1	1
N#Cc1cccc(NC(=O)N2CCC(c3nc4c(nnn4Cc4cccc(Cl)c4)c(=O)[nH]3)CC2)c1	7.1	-24	-1.6	24%	5	/	2.0	5
CC(Nc1ncnc2sccc12)c1ccccc1 (stereo not given)	-1.4	2	1.7	/	0	-2.3	28*	/
CCCc1cc(=O)oc2c3c(cc(OCC(=O)N[C@@H](CSC)C(=O)O)c12)OC(C)(C)CC3	-0.8	4	0.5	5%	-4	-2.4	1.6	1
Clc1ccc(-c2noc(CN3CCCC3)n2)cc1	-3.2	5	-2.2	-3%	-28	/	-2.8	/
CC(C)C(NC(=O)c1ccco1)C(=O)NCC(c1ccco1)N1CCCCC1 (stereo not given)	-0.9	-5	0.3	-1%	-13	/	3.4	2
CS(=O)(=O)N1N=C(c2cccs2)CC1c1ccccc1 (stereo not given)	13	-13	-0.2	-4%	-5	2.7	-1.7	-7
CCCOc1ccc(C2C(C(=O)/C=C/c3ccco3)=C(O)C(=O)N2CCN2CCOCC2)cc1OC (stereo not given)	4.4	-1	-1.0	?	32	0.4	2.9	-9
O=C(Nc1ccc(F)cc1)Nc1nnc(Cc2ccccc2F)s1	-1.7	2	1.2	/	7	-0.2	-1.5	/
Cc1nnc(N/N=C/C(C)c2ccccc2)[nH]c1=O (stereo not given)	2.0	-9	1.1	1%	-4	2.7	0.8	-6
CCC(C)OC(=O)C1=C(C)NC(=O)CC1c1ccccc1OC (stereo not given)	6.2	4	-0.4	7%	-7	/	-0.6	-3
O=C(N1CCOCC1)N1CCN(C(c2ccccc2)c2ccccc2)CC1	-2.4	16	0.8	0%	-14	/	-0.7	5
O=S(=O)(/N=C(/c1ccccc1Cl)N1CCOCC1)c1ccccc1	2.9	-17	0.1	1%	8	-55	-14	8
Cc1onc(-c2c(F)cccc2Cl)c1C(=O)NNC(=O)C1CCN(Cc2cccc(F)c2)CC1	-5.8	2	0.3	-3%	-2	-1.0	?	0
O=C(NN1C(=O)NC2(CCCCC2)C1=O)c1ccc(Cl)c(Cl)c1	2.8	/	0.5	3%	/	-1.1	/	0
CCCCNS(=O)(=O)c1ccc(NC(=O)c2c(-c3ccccc3Cl)noc2C)cc1	-0.2	-8	-1.0	1%	?	/	6.7	-1
O=C1CCC(C(=O)Nc2cccc3ccccc23)N1 (stereo not given)	1.9	-9	0.1	18%	-2	/	1.2	-2
N/C(COc1ccc(F)cc1)=N\NC(=O)c1cccnc1Oc1ccccc1	-5.3	-9	-1.4	4%	2	/	5.1	9
Cc1ccc(C(=O)N2CC3(C(C)C)CN(C(=O)c4ccc(C)cc4)CC(C(C)C)(C2)C3=O)cc1	-1.3	13	-0.7	-5%&11%	-1	-3.5	-1.8	0
O=C1CCCC(O)=C1N=Nc1c(Cl)cc(Cl)cc1Cl	1.9	3	0.6	?	8	/	0.9	-6
Cn1c2ccccc2c(=O)c2c(=O)n(Cc3ccco3)c(COc3ccccc3)nc21	-1.8	62*	1.0	20%	-5	2.1	1.1	3
COc1ccc(C2=Nc3ccccc3OC2)cc1	1.9	-14	-11	7%	1	/	0.8	-7
CC1Sc2ccc(S(=O)(=O)N3CCC(C(=O)Nc4ccc(Cl)cc4)CC3)cc2NC1=O (stereo not given)	3.1	2	0.5	/	-6	-1.2	-0.5	113*
C=CCn1c(SCC(=O)Nc2c(C)n(C)n(-c3ccccc3)c2=O)nnc1-c1cccnc1	2.4	/	0.4	0%	/	-0.5	/	-3
COC(=O)C1=C(C)NC(=O)NC1c1ccc(-c2ccc(Cl)cc2)o1 (stereo not given)	-1.4	9	0.0	0%	4	-2.2	/	-11
Cn1c(=O)[nH]c(=O)c2c1nc(N1CCCCCC1)n2CCOc1ccccc1	-0.2	7	-1.1	-8%	-32	-0.5	1.2	-2
COC(=O)c1[nH]c2cc(OC)ccc2c1NC(=O)CN1CCN(c2cccc(C)c2)C(C)C1 (stereo not given)	1.1	22	-0.4	-4%	14	/	0.4	-10
O=C(COC(=O)c1ccc(S(=O)(=O)N2CCCC2)cc1)NCc1ccc(F)cc1	0.3	-7	0.4	-8%	9	/	-0.4	-5
CCSCC1COC(c2cccn2Cc2ccc(C)cc2)=N1 (stereo not given)	1.8	0	0.3	-4%	2	/	2.2	0
CC(C)c1ccc(/C=N/NC(=O)CCNC(=O)c2ccccc2)cc1	1.2	-3	-0.3	-5%	-3	1.2	-4.8	-2
CCOC(=O)Cc1csc(NC(=O)c2ccc(F)cc2)n1	4.5	8	-1.9	-1%	-15	-0.4	4.4	3
CCOC(=O)c1c(-c2ccccc2Cl)cn2ccccc12	-0.2	4	-0.8	0%	91*	/	-4.5	-9
CCN(CC)c1ccc(NC(=O)CCCCCN2C(=O)c3ccccc3C2=O)cc1	3.0	17	-0.5	23%	7	/	2.6	13
Cn1c(SCC(=O)N2CCCc3ccccc32)nnc1-c1c[nH]c2ccccc12	-4.2	6	-0.3	7%	23	/	2.8	-4
CCCCNCc1cc(Cl)c(OCCC)c(OCC)c1	-3.4	38	-2.0	4%	-30	/	2.6	5
CCCCC1C(=O)CC[C@H]2[C@@H]1CC(=O)[C@@H]2C/C=C\CCCC(=O)O (stereo not given in full)	-3.0	-9	-0.3	4%	/	/	5.5	-2
Cc1cccc(Cl)c1NC(=S)N1CCN(c2ccc([N+](=O)[O-])cn2)CC1	1.7	3	-0.2	-3%	-2	/	-1.9	-2
O=C(CSc1nc2ncc(Br)cc2[nH]1)Nc1ccc2c(c1)OCO2	-2.9	/	0.0	0%	0	/	-2.5	-1
O=C(NCCCO)C(=O)NCC1OCCCN1S(=O)(=O)c1cccs1 (stereo not given)	-0.6	-8	1.5	-4%	0	0.3	-2.7	-8
Cc1cc([N+](=O)[O-])nn1CC(=O)N1N=C(C(F)F)CC1(O)C(F)F (stereo not given)	-0.5	-9	0.1	23%	?	-21	-1.7	-9
CCOC(=O)CC(=O)Nc1nc2ccccc2s1	1.5	-13	0.3	1%	-3	/	14	-7
CC(C)C(=O)NCCSc1c[nH]c2ccccc12	-2.8	-4	1.0	-6%	3	-6.4	-5.3	0
Cc1ccc2occ(C3NC(C(=O)O)CS3)c(=O)c2c1 (stereo not given)	7.7	6	0.1	5%	-12	/	-3.0	-6
CC(CCCC(C)(C)O)NCc1cn[nH]c1-c1ccc2c(c1)OCO2 (stereo not given)	-6.4	-8	-0.1	-7%	-3	0.2	1.2	-5
O=C(Nc1cccc(F)c1)NC1(C(=O)N2CCOCC2)CCCCC1	1.2	-4	0.6	0%	-13	-2.7	-2.4	-3

(next part)
SMILES	LANA-H2B inh	T cruzi inh	Bfl-1 A1 inh	Vif A3G	Calb FLC	MLL AF4-AF9 inh	RanGTP-Imp inh	Beta cell apopt
O=C(O)C1=C[C@@H](c2ccc(Br)cc2)C[C@@H](OCc2ccc(CO)cc2)O1	-3.6	-7	2.0	18%	-10	2.0&7.7	-4.8	4
CN(Cc1cccc2ccccc12)C(=O)c1cc(COc2c(F)cccc2F)on1	1.6	32	0.1	-9%	-28	-3.1	0.1	1
CCOC(=O)c1cc(S(=O)(=O)NCc2ccco2)cn1C	-2.6	-8	0.4	/	3	-2.9	-1.1	-8
O=C(CCn1cccc1)Nc1ccc(F)cc1	-1.1	-3	1.2	-5%	-3	/	-0.9	2
CC1(C(=O)NCCc2c[nH]c3ccccc23)C=CC2(CCCCC2)N1C(=O)c1ccccc1 (stereo not given)	-2.3	-4	0.9	/	-4	/	3.5	-3
COc1cc(Cl)c(CN2CCCC(CO)(Cc3ccccc3F)C2)cc1OC (stereo not given)	-1.2	31	0.2	/	5	4.1	0.1	7
Cc1ccc(Cn2c(=O)c3c(nc4n3CCN4Cc3ccco3)n(C)c2=O)cc1	2.9	5	-0.1	-2%&13%	-5	/	-2.1	-1
CCCCCCOC(=O)C1=C(C)NC(=O)NC1c1ccc(O)cc1 (stereo not given)	0.1	1	0.5	6%	5	/	2.8	-2
O=C(OCC(=O)N1CCCCC1)c1cc2ccccc2cc1O	4.4	-5	-1.1	-1%	0	/	?	-5
CS(=O)(=O)N1CCC(Oc2ccccc2C(=O)N2CCNC(=O)C2)CC1	0.4	-11	0.0	?	-2	-7.6	1.7	-4
CNC(=O)C1CCN(S(=O)(=O)c2c(C)noc2/C=C/c2cccc(C)c2)CC1	-4.3	-10	0.7	1%	-38	-1.7	1.3	4

A stretch taken from the entries so far:
SMILES	LANA-H2B inh	T cruzi inh	Bfl-1 A1 inh	Vif A3G	Calb FLC	MLL AF4-AF9 inh	RanGTP-Imp inh	Beta cell apopt
O=C(O)C1=C[C@@H](c2ccc(Br)cc2)C[C@@H](OCc2ccc(CO)cc2)O1	-3.6	-7	2.0	18%	-10	2.0&7.7	-4.8	4
CN(Cc1cccc2ccccc12)C(=O)c1cc(COc2c(F)cccc2F)on1	1.6	32	0.1	-9%	-28	-3.1	0.1	1
